A647 autofl = compound fluoresces in the A647 spectral region | Compound fluorescence, A647 channel (570/671 nm), Tris buffer | max dye-equivalent concentration, M | 59,000 tested, under 10 active | AID 592; active means above 1 µM dye equivalent; inconclusive means 0.1 to 1 µM; inactive means 0.1 µM or less;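 also: values scaled relative to a standard on each plate; highest value over a series up to 38 µM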
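Spectral profiling of library compounds in pH 8.0 Tris: 15 min room-temperature incubation, single ex/em pair (570/671 nm), response normalized to Alexa 647 equivalents.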
Resorufin fluor = compounds fluorescent in resorufin spectral region; Compound fluorescence, resorufin region 547/598 nm, buffer; hits give high values; max dye-equivalent concentration, M; hit rate 0.04% among 59,000; active = above 10 nM dye equivalent; inconclusive = 1 to 10 nM; inactive = 1 nM or less; a few of its hits are not listed in these tables; also: highest value over a series up to 38 µM
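Read-out: intrinsic compound fluorescence at ex 547/em 598 nm after 15 min at RT in pH 8.0 Tris (100 mM). Values expressed as resorufin-equivalent concentration from per-plate standard series.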
A488 fluor = compound fluoresces in the A488 spectral region. AID 591. hit rate 0.1% among 59,000. max dye equivalency, M. compound autofluorescence, A488 spectral region, dye equivalency; hits give high values; active = above 10 nM dye equivalent; inconclusive = 1 to 10 nM; inactive = 1 nM or less; about half of its hits are not listed in these tables;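 also: highest value over a series up to 38 µM; compound alone in buffer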
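Read-out: relative fluorescence at 480/540 nm, expressed as Alexa 488 dye-equivalent concentration from a six-point A488 standard included per plate. Conditions: 100 mM Tris, pH 8.0; 15 min incubation, room temperature.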
TSHR ag = agonists of human thyroid stimulating hormone receptor; P16473; HEK293-CNG-TSHR cells (CNG channel as cAMP sensor), membrane potential dye, cAMP; Potency, µM (titrated, usually from 57.1 µM), for inactives: top-dose activation, hits mostly activators; hit rate 0.48% among 73,000; active = well fitted activation curve of enough size with the parental cells flat; inconclusive = any curve in the parental cells; inactive = parental cells flat and receptor cells flat or falling; also: potency is read from the fitted curve at half-maximal effect; % of control where 0% means no effect; weak receptor curves with flat parental cells got no call and are not listed
Target sequence (P16473 whole entry, looked up): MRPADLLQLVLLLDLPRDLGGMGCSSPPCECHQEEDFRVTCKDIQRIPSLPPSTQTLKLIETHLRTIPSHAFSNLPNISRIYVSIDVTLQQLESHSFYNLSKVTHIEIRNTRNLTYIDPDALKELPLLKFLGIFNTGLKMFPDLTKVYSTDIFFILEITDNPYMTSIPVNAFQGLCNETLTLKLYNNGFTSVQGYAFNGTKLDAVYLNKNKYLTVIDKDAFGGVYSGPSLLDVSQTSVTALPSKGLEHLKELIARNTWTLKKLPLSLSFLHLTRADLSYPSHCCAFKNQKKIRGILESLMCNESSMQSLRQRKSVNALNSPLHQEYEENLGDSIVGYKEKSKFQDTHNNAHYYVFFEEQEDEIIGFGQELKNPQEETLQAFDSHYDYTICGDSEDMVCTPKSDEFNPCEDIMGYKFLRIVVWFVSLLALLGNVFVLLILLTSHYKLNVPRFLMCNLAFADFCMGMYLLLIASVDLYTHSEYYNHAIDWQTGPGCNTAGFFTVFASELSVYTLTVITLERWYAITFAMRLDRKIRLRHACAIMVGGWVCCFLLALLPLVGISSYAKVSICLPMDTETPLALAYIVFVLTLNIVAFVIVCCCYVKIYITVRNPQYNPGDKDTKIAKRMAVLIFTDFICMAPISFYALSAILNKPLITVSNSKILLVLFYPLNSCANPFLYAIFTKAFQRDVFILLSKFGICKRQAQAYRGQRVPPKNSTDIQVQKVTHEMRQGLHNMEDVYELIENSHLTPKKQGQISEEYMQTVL
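HEK 293 cells stably expressing TSHR and a cAMP-gated CNG channel; parental CNG-only cells as counterscreen. Cells preloaded 60 min with membrane potential dye plus 100 uM RO 20-1724, then compound 30 min; fluorescence read at 590 nm.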
AID923 = qHTS Assay for Allosteric/Competitive Inhibitors of Caspase-1: Spectroscopic Profiling in AFC Spectral Region | compound fluorescence, AFC spectral region (405/520 nm); almost no hit is shown here | Potency, µM (highest dose often 57.5 µM), for inactives: top-dose fluorescence increase, hits mostly activators | hit rate 1.1% among 75,000; active = well fitted activation curve with a large enough effect; inconclusive = small, poorly fitted or top-dose-only effect;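 also: potency is read from the fitted curve at half-maximal effect; 0% is about no effect; scaled to a free AFC standard on each plate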
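Titrations up to 57 uM read every 20 sec for 3 min (405/520 nm) with 50 nM caspase 1 and 5 uM Ac-WEHD-AFC, pH 7.5 HEPES buffer. Fluorescence-vs-time intercept gave baseline, scaled against on-plate AFC standard.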
* marks the source's active call; other numbers are inactive results; i = inactive; u = inconclusive; x = not tested or not shown; [ ] = another dose, or the depositor's remark.

SMILES	A647 autofl	Resorufin fluor	A488 fluor	TSHR ag	AID923
CCC(CC)COC(=O)C(C#N)c1nc2ccccc2nc1N1CCN(CC)CC1 (stereo not given)	2.87e-08	i	i	u	20.8%
Cc1nn(-c2ccccc2)c2sc(C(=O)O)cc12	1e-09	i	i	16.6%	-0.7%
Cc1ccc(N(CN2C(=O)NC(C)(C)C2=O)CN2C(=O)NC(C)(C)C2=O)cc1	1e-09	i	i	x	x
O=C(NCc1nc2ccccc2[nH]1)[C@H]1C[C@@H]1[C@H](NP(=O)(c1ccccc1)c1ccccc1)c1ccccc1	x	x	x	u	-2.4%
O=C(NC1CC1)C1CCN(c2ccc(S(=O)(=O)N3CCOCC3)cc2)CC1	6e-09	i	i	-4.0%	-1.3%
CCCCC(CC)CNC(=O)CCS(=O)(=O)c1cccc2nonc12 (stereo not given)	7e-09	i	i	-4.4%	1.2%
CCOc1ccc2[nH]c(C)c(CN3CCOCC3)c(=O)c2c1	x	x	x	-1.1%	0.6%
CCCOc1ccc(/C(O)=C2/C(=O)C(=O)N(CCN3CCOCC3)C2c2ccccc2)cc1 (stereo not given)	1e-09	i	i	x	x
COCCn1c(=O)cnc2cnc(N3CCN(C)CC3)nc21	1.9e-09	i	i	-0.4%	12.4%
CC(O)c1nc2ccccc2n1Cc1nnc(-c2ccc(Cl)cc2)o1 (stereo not given)	1e-09	i	i	15.1%	0.3%
CC1CC(C)CN(S(=O)(=O)c2cccc3cccnc23)C1 (stereo not given)	x	x	x	u	2.4%
COc1ccccc1S(=O)(=O)Cc1ccc(C(=O)N2CCOCC2)o1	x	x	x	2.7%	0.3%
CCc1nc2ccccc2c(=O)n1NC(=O)c1c(O)c2cccc3c2n(c1=O)CCC3	5.1e-09	i	i	2.8%	-0.1%
CCOc1ccc2oc(-c3ccccc3)c(C(=O)O)c2c1	2.1e-08	i	i	-2.4%	0.9%
Cc1nn(C)c(C)c1S(=O)(=O)N1CCCC(C(=O)N2CCN(c3ccccc3)CC2)C1 (stereo not given)	x	x	x	-15.1%	2.3%
CCN(CC)CCN1C(=O)c2cccc3cc(N)cc(c23)C1=O	1.2e-09	i	u	-2.4%[11.4 µM]	2.7%[11.5 µM]
O=C(Nc1ccc2ccccc2c1)[C@H]1C[C@@H]1[C@H](NP(=O)(c1ccccc1)c1ccccc1)c1ccccc1	x	x	x	-5.8%	-0.2%
CCOc1ccc(CNC(=O)C2CCC(=O)N2C2CCCC2)cc1OC (stereo not given)	1.27e-08	i	i	-1.2%	0.4%
Cc1ccc(NC(=O)N(Cc2ccc3c(c2)OCO3)Cc2cc3cc4c(cc3[nH]c2=O)OCCO4)cc1	1.1e-09	i	i	2.8%	1.2%
NC(=O)C1CCN(C(=O)CN2C(=O)c3ccccc3S2(=O)=O)CC1	2.76e-08	i	i	-2.7%	0.4%
c1cncc(CNC2CCCc3ccccc32)c1 (stereo not given)	1.78e-08	i	i	2.0%	0.2%
COc1ccc(Cl)cc1-n1c(C)cc(C(=O)O)c1C	5.2e-08	i	i	8.2%	-1.3%
CCn1c(SCC(=O)N2CCc3ccccc32)nnc1-c1c[nH]c2ccccc12	5.3e-09	i	i	0.1%	0.5%
CCOC(=O)CCN1C(=O)[C@H]2[C@H]3[C@H](O)[C@H](O)C/C(=N/NC(=O)OCC)[C@H]3CC[C@@H]2C1=O	x	x	x	2.9%[11.4 µM]	-0.5%[11.5 µM]
Cc1cc(=O)[nH]c2ccccc12	1.9e-09	i	i	-0.5%	-1.1%
(continued)
SMILES	A647 autofl	Resorufin fluor	A488 fluor	TSHR ag	AID923
CS(=O)(=O)N1CCC[C@@]2(CCN(c3ncccn3)C2)C1	1.7e-09	i	i	1.5%	-1.0%
Cc1nnc(SCC(=O)Nn2cnnc2)s1	1.81e-08	i	i	0.1%	-2.9%
O=C(Nc1ccc(-c2cn3ccsc3n2)cc1)C1CC1	1.35e-08	i	i	1.6%	0.0%
Cn1c(SCC(=O)N2CCCCCC2)nc2c([nH]c3ccccc32)c1=O	4.3e-09	i	i	u	0.1%
CCOc1cc2c3c(c1)C1(C(=O)N3C(C)(C)C=C2C)C(C#N)=C(N)Oc2cc(O)ccc21 (stereo not given)	1.61e-08	i	i	6.6%	-3.5%
O=c1c2cnn(-c3ccccc3)c2ncn1Cc1cccnc1	1.75e-08	i	i	-2.4%[11.4 µM]	0.8%
CC(=O)Nc1ccccc1O	1e-09	i	i	x	x
COc1ccc(CC(NC(C)=O)C(=O)NC2CCN(C(=O)Nc3ccc(C#N)cc3)CC2)cc1OC (stereo not given)	7.5e-09	i	i	-1.5%	0.0%
CCCCC(CC)C(=O)Nc1ccccc1C#N (stereo not given)	1.06e-08	i	i	3.4%	0.4%
Cc1ccccc1NC(=O)c1cc(S(=O)(=O)N2CCOCC2)cs1	2.4e-09	i	i	0.5%	0.1%
CC(=O)c1cccc(NC(=O)N2CCc3ccccc3C2)c1	1e-09	i	i	5.0%	-1.9%
COc1ccc(CNC(=O)c2cnc3n(c2=O)CCS3)cc1	x	x	x	u	-1.6%
COc1ccc(C(=O)/C=C/Nc2cccc(C)n2)cc1OC	4.3e-09	i	i	x	x
CCCCNc1cc(=O)n(C)c(=O)n1C	x	x	x	3.6%	2.3%
O=C(COc1ncnc2sccc12)Nc1ccc2c(c1)OCCO2	6.6e-09	i	i	-2.1%	0.5%
Cc1csc(NC(=O)CNC(=O)OCc2ccccc2)n1	2.77e-08	i	i	-2.2%	-0.1%
COc1ccc(C(=O)N2c3cc4c(cc3C(C)=CC2(C)C)OCO4)cc1	1e-09	i	i	15.8µM*	1.1%
CC1CN(c2nc3ccccn3c(=O)c2/C=C(\C#N)S(=O)(=O)c2ccccc2)CC(C)O1 (stereo not given)	1.75e-08	i	i	-43.6%[inhibitor]	7.2%
CC(C)C(=O)NCCc1nc2ccccc2n1C	1.16e-08	i	i	2.2%	1.3%
O=C(CSc1n[nH]c(-c2ccncc2)n1)NCCc1ccccc1	1e-09	i	i	15.0%	-0.9%
C=CCNC(=O)c1ccccc1Cl	1e-09	i	i	5.0%	-0.2%
Cc1ccc(C)c(OCCOCCN2CCOCC2)c1	x	x	x	12.7%	0.9%
CCN1/C(=C/C(C)=O)Sc2ccc(OC)cc21	2.7e-09	i	i	-0.6%	-1.6%
CN1CCN(C(=O)c2cnn3c(C(F)F)cc(C4CC4)nc23)CC1	1e-09	i	i	6.1%	1.5%
COc1ccccc1OCC(O)Cn1c(=N)n(CCN2CCCCC2)c2ccccc21 (stereo not given)	5.2e-09	i	i	u	-0.2%
(listing goes on)
SMILES	A647 autofl	Resorufin fluor	A488 fluor	TSHR ag	AID923
COc1ccc(-c2noc(CN(C)S(=O)(=O)c3ccc(C)cc3)n2)cc1	5.8e-09	i	i	u	0.1%
COc1ccc(Cl)cc1C(=O)n1nc(C)cc1C	x	x	x	20.9%[11.4 µM]	-1.4%
N#Cc1ccc(COC(=O)Cn2nnc(-c3ccccc3)n2)cc1	3.4e-09	i	i	-1.5%	-2.4%
O=C(O)CCC(=O)Nc1ccc(N2CCCCC2)c(C(=O)O)c1	1.24e-08	i	i	-3.7%	1.4%
CCCCc1c(C)c2ccc(OC)c(/C(C)=N\O)c2oc1=O	7.1e-09	i	i	u	1.9%
Cc1ccc(C)c2[nH]c(=O)c(CCNC(=O)C(C)C)cc12	x	x	x	3.6%	3.1%
Cc1ccc(Cl)cc1NS(=O)(=O)c1c(C)[nH]c(=O)[nH]c1=O	1e-09	i	i	-4.9%	1.2%
COc1ccc(NC(=O)CCn2nc(C)cc2C)cc1	3.34e-08	i	i	-2.0%	-1.0%
Cn1c(CSCc2ccccc2Cl)nnc1SCC(=O)Nc1nccs1	2.6e-09	i	i	u	0.3%
NC(=O)c1c(NC(=O)Cc2cccs2)sc2c1CCC2	9.3e-09	i	i	14.0%	0.4%
CCn1cc(CNC(=O)CCc2ccc(OC)cc2)cn1	3.47e-08	i	i	20.3%	-1.3%
CC1(C)CC(N(Cc2ccco2)C(=O)Cc2ccccc2)CCO1 (stereo not given)	2.35e-08	i	i	x	x
CC(=O)Nc1nonc1-c1nc2ccccc2n1N(C(C)=O)C(C)=O	x	x	x	0.4%	1.0%
Nc1ccc(N=Nc2c(S(=O)(=O)O)cc3ccccc3c2S(=O)(=O)O)cc1	1.5e-09	i	i	-3.2%[11.4 µM]	-1.9%[11.5 µM]
CCOc1ccc(CN(C(=O)c2ccco2)C2CCS(=O)(=O)C2)cc1 (stereo not given)	3e-09	i	i	u	-0.6%
Cc1ccc(OCC(O)CN2CCN(c3ccccc3)CC2)cc1 (stereo not given)	x	x	x	12.1%	-0.3%
CCOC(=O)N1CCN(C(=O)COc2cc(=O)n(C)c3ccccc23)CC1	6.9e-09	i	i	-0.9%[11.4 µM]	0.1%
COc1ccc2[nH]c(=O)c(CN(C(=O)c3ccncc3)C(C)C)cc2c1	1.78e-08	i	i	2.5%	1.0%
COc1ccc(OC)c(NC(=O)CCC(=O)Nc2nnc(C(F)(F)F)s2)c1	6.2e-09	i	i	4.1%	0.0%
CC(NC(=O)COc1ccc(Br)cc1)C(=O)O (stereo not given)	x	x	x	1.6%	2.5%
Cc1ccc(S(=O)(=O)Nc2ccccc2C(=O)O)c(C)c1	x	x	x	2.0%	-2.2%
Cc1ccc(S(=O)(=O)NCC(=O)OCC(=O)c2cccs2)cc1	8.9e-09	i	i	2.3%	1.6%
Cc1cc2ccccc2n1CCNC(=O)c1ccccc1	6.9e-09	i	i	13.6%	8.0%
COc1ccccc1CC(=O)NC1CC(C)(C)NC(C)(C)C1	3.14e-08	i	i	3.0%	1.7%
CCOC(=O)c1cnc(SCC(=O)N2CCN(c3ccccc3)CC2)nc1N	3.3e-09	i	i	14.1%	1.7%
Following part
SMILES	A647 autofl	Resorufin fluor	A488 fluor	TSHR ag	AID923
N#Cc1ccsc1NC(=O)COC(=O)CCCSc1nc2ccccc2s1	1e-09	i	i	x	2.0%
Cc1nn(C(=O)CN2C(=O)c3ccccc3C2=O)c(C)c1Br	x	x	x	5.5%	1.5%
CCc1ccccc1NC(=O)c1nnn(CC(=O)Nc2ccccc2C)c1N	2.48e-08	i	i	14.5%[11.4 µM]	0.9%
CC(=O)OCC(COC(C)=O)OC(C)=O	x	x	x	-2.7%	1.6%
CC(C)OC(=O)Cn1c(=O)sc2ccccc21	1.84e-08	i	i	3.7%	0.2%
COc1ccccc1OCCCn1c(C)c(C#N)c2ccccc21	1e-09	i	i	u	1.8%
Cc1ccc(-n2ncc(C(=O)O)c2C2CCN(C(=O)OC(C)(C)C)CC2)cc1	6.4e-09	i	i	3.4%	0.5%
CCN(CC)CCN1C(=O)C(O)=C(C(=O)c2cccs2)C1c1ccc(C)o1 (stereo not given)	7.3e-09	i	i	2.1%	-0.5%
CCN1CCN(CCCNC(=O)c2cn(CCOC)c(=O)c3c2c2ccccc2n3C)CC1	1e-09	i	i	-2.5%	0.1%
O=C(Nc1cccc2cccc(NC(=O)c3ccco3)c12)c1ccco1	2.1e-09	i	i	7.3%	0.3%
O=C(CSc1nnc(-c2ccccc2F)o1)OCc1ccccc1	2.7e-09	i	i	u	0.8%

Some of the compounds tested; the hit share may differ from the screen's.
